From PubChem BioAssay
Cruzain inh noDet – cruzain (T. cruzi) inhibition without detergent. P25779. purified cruzain, Z-FR-AMC fluorescence, no detergent. Potency, µM, for the others: max response, negative = inhibition, most hits filed as inhibitors. hit rate 2.3% among 200,000. AID 1476; active = well fitted curve in the direction sought with a large enough effect; inconclusive = small, poorly fitted or top-dose-only effect, or another doubt; inactive = no such curve, though single readings can be large; an effect the other way counts as inactive or inconclusive;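 also: plate controls were enzyme without inhibitor for no effect and buffer without enzyme for full effect; nearly all actives have a fitted effect of over 40% in size; top concentration of the series not given in the record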
Target sequence (P25779 123-467 limits assumed): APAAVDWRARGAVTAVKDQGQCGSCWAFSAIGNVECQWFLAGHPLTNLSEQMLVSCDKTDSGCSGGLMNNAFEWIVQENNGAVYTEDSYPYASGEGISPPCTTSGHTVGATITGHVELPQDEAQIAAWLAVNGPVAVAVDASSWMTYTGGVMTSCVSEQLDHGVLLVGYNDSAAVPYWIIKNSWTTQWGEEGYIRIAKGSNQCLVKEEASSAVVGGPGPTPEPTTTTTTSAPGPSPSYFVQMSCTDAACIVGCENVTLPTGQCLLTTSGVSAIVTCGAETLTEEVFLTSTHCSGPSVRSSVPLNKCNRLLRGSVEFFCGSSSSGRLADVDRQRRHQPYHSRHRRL
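Purified cruzain at 1.5 nM, pre-incubated 15 min with compound at room temperature in 100 mM sodium acetate pH 5.5, 5 mM DTT, 0.00005% Triton X-100. Reaction started with 2 uM Z-FR-AMC; AMC fluorescence increase over 60 s gives rate.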
Cruzain inh Det – cruzain (T. cruzi) inhibition with detergent; P25779; purified cruzain, Z-FR-AMC fluorescence, 0.01% Triton; Potency, µM, for the others: max response, negative = inhibition, actives largely listed as inhibitors; hit rate 0.43% among 200,000; AID 1478; active = well fitted curve in the direction sought with a large enough effect; inconclusive = small, poorly fitted or top-dose-only effect, or another doubt; inactive = no such curve, though single readings can be large; an effect the other way counts as inactive or inconclusive;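 also: plate controls were neutral wells for no effect and buffer without enzyme for full effect; nearly all actives have a fitted effect of over 40% in size; top concentration of the series not given in the record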
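In this qHTS format, compounds are incubated with 1.5 nM cruzain for 15 min at room temperature before 2 uM Z-FR-AMC is added. Release of AMC is followed at 360/450 nm, and progress is taken as the 60 s fluorescence difference.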
RE007 growth inh – less growth of the S. pombe RE007 Vpr strain. Potency, µM (titrated, usually from 92.2 µM), for the others: top-dose activity change, negative = less growth. S. pombe RE007 Vpr strain, BacTiter-Glo ATP luminescence, 24 h; control for the full effect not named in the record. hit rate 0.21% among 360,000; active = well fitted falling curve with a large enough effect; inconclusive = small, poorly fitted or top-dose-only effect; inactive = no such curve, though single readings can be large or run the other way;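 also: % is scaled to controls: 0 for no effect and ±100 for the full control effect; nearly all actives have a fitted effect of over 50% in size; the assay follows cell death caused by Vpr and the record does not say whether a fall means rescue or toxicity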
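Fission yeast RE007 carrying one integrated HIV-1 vpr copy, seeded at OD 0.01 in PMG+AL medium with 23 nL pinned compound. Grown 24 h at 30 degrees; viability read by BacTiter-Glo luminescence after 5 min.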
MARV entry inh – inhibitors of Marburg virus binding or cell entry | Marburg virus pseudotyped entry inhibition, cell reporter; control for the full effect not named in the record; about a third of the inactives were read at about 46 µM | Potency, µM (doses to about 37.8 µM), for the others: at the highest dose activity change, negative = inhibition, actives largely listed as inhibitors | hit rate 1.8% among 300,000 | AID 540276; active = well fitted inhibition curve with a large enough effect; inconclusive = small, poorly fitted or top-dose-only effect, or effect the other way; inactive = flat fitted curve, though single readings scatter; tested in HEK293 cells; about a fifth of its hits are not listed in these tables; also: % is scaled to controls: 0 for no effect and ±100 for the full control effect; luciferase read-out
Lassa entry inh – Lassa virus entry inhibition; Lassa virus pseudotype entry inhibition, cell reporter; control for the full effect not named in the record; Potency, µM (top dose mostly 37.9 µM), inactives show at the highest dose activity change, negative = inhibition, usual class: inhibitors; hit rate 1.2% among 300,000; active means well fitted inhibition curve with a large enough effect; inconclusive means small, poorly fitted or top-dose-only effect, or effect the other way; inactive means flat fitted curve, though single readings scatter; tested in HEK293 cells; also: % is scaled to controls: 0 for no effect and ±100 for the full control effect; nearly all actives have a fitted effect of over 50% in size; luciferase read-out
2A StopGo – FMDV 2A StopGo reporter, luciferase signal; human cells with a luciferase reporter of 2A StopGo recoding; control for the full effect not named in the record; Potency, µM (titrated, usually from 57.9 µM), for inactives: at the highest dose signal change, negative = less light; hit rate 1.2% among 410,000; AID 1159524; active = well fitted falling curve with a large enough effect; inconclusive = small, poorly fitted or top-dose-only effect; inactive = no such curve, though single readings can be large or run the other way; tested in HEK293T cells; also: % is scaled to controls: 0 for no effect and ±100 for the full control effect; nearly all actives have a fitted effect of over 45% in size; luciferase light after 4 h
SARS PLP yeast – SARS-CoV PLP inhibition in yeast | Potency, µM (series often up to 32.9 µM), without a hit: at the highest dose activity, positive = growth rescue | hit rate 0.19% among 330,000 | S. cerevisiae expressing SARS-CoV PLpro, growth rescue; control for the full effect not named in the record; also: 0% is about no effect; nearly all actives have a fitted effect of over 55% in size; growth read by luminescence after 48 h
NS1 function inh – inhibitors of influenza NS1 protein function. hit rate 0.4% among 270,000. Potency, µM (series often up to 46.1 µM), inactives show at the top dose activity, positive = more growth. S. cerevisiae slowed by influenza A NS1, growth recovery by OD600; also: actives are rising curves; nearly all actives have a fitted effect of over 50% in size
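Compounds were scored for reversing the slow growth caused by influenza A NS1 in S. cerevisiae, measured by optical density at 600 nm. Assay medium contained 2% galactose at pH 6.0; NS1-free yeast of the same strain were the positive control.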
Numbers without * were called inactive; ? = inconclusive; . = not tested or not shown; [ ] = another dose, or the depositor's remark. Unless noted, calls follow the shape of the dose curve; as a rule, active means well fitted rising curve with a large enough effect; inconclusive means small, poorly fitted or top-dose-only effect; inactive means no such curve, though single readings can be large or run the other way. Potency is read from the fitted curve at half-maximal effect. An unsorted share of the library, and some 4.7% of all compounds hit somewhere here.

SMILES	Cruzain inh noDet	Cruzain inh Det	RE007 growth inh	MARV entry inh	Lassa entry inh	2A StopGo	SARS PLP yeast	NS1 function inh
Cc1ccc(S(=O)(=O)c2cc(C)cc(S(=O)(=O)Nc3ccc(C(=O)O)cc3)c2C)cc1	.	.	2.5%	1.2%[46.1 µM]	5.1%	-5.5%	0.4%	?
O=C(Nc1cccc(NC(=O)c2cccnc2Cl)c1)c1ccco1	-3.5%	-1.4%	-26.4%	-1.1%	2.4%	-22.2%	-2.8%	-2.2%
O=C(NCc1ccc(F)cc1)Nc1cccc(Cl)c1	.	.	-13.9%	?	7.4%	14.9%	-0.3%	.
CS(=O)(=O)N1CCN(C(=O)c2cc(-c3cccnc3)nc3ccc(Br)cc23)CC1	.	.	42.0%	?	0.7%	31.8%[activator]	1.6%	0.5%
CC1CCCCN1C(=O)CSc1nnc(-c2cccnc2)n1C1CCCCC1 (configuration not stated)	0.4%	-6.1%	-9.0%	-7.6%	-2.6%	6.1%	-0.4%	3.8%
CC1Cc2ccccc2N1CC(=O)Nc1cccc(S(N)(=O)=O)c1 (configuration not stated)	.	.	12.7%	2.1%[46.1 µM]	15.0%	2.0%	1.9%	.
Cn1nccc1C(=O)N1CCc2c([nH]c3ccccc23)C1c1ccc(F)cc1 (configuration not stated)	.	.	5.1%	?	?	-9.5%	-3.0%	3.1%
COc1ccccc1CNC(=O)CCn1c(=O)c2ccccc2n(CC(=O)Nc2ccc(C)cc2)c1=O	2.4%	-2.3%	.	?	-18.4%[46.1 µM]	-0.3%	.	.
COCC(C)n1c(C)cc(C(=O)COC(=O)c2ccc(N3CCCC3=O)cc2)c1C (configuration not stated)	14.9%	-6.3%	10.6%	1.8%	-7.7%	-11.8%	4.3%	-3.6%
Cc1c2cnn(CC(=O)N3CCCCC3)c(=O)c2c(C)n1Cc1ccc(Cl)cc1	0.9%	-0.9%	.	-0.7%[46.1 µM]	?	-24.9%	.	.
NC(=O)c1ccc(NS(=O)(=O)c2ccccc2F)cc1	4.1%	5.0%	-11.2%	1.2%	?	-8.9%	-2.3%	-1.5%
COc1cc(/C=C/c2nc(N)nc(-c3ccccc3O)n2)cc(OC)c1OC	?	-9.6%	3.4%	-0.6%	-27.1%	?	-13.9%	-1.2%
CCOC(=O)c1c(C)n(C)c2ccc(O)c(CN3CCN(C)CC3)c12	-4.8%	2.3%	-19.6%	-25.4%	13.1%	.	-0.4%	9.6%
COC(=O)c1ccc(NC(=O)c2snnc2-c2ccccc2)cc1	.	.	11.9%	.	.	-14.2%	-1.4%	-34.1%
CCOC(=O)c1c(NC(=O)c2cc(-c3ccccc3)on2)sc2c1CCCC2	-1.4%	2.0%	.	.	-1.1%[46.1 µM]	-17.9%	.	.
COc1ccccc1OCC(=O)Nc1nnc(C2CCCC2)s1	.	.	-6.1%	.	.	11.0%	0.7%	-19.5%
CC(Sc1nnc(Cc2ccc3c(c2)OCO3)o1)C(N)=O (configuration not stated)	.	.	-8.7%	9.5%[46.1 µM]	12.1%	16.1%	-0.6%	0.2%
CCCS(=O)(=O)c1nc(S(=O)(=O)c2ccc(C)cc2)c(N2CC(C)OC(C)C2)s1 (configuration not stated)	.	.	-7.9%	.	.	2.5%	1.5%	-21.0%
CCc1ccc(NC(=O)C(C)Oc2nnc(-c3cccs3)c(-c3cccs3)n2)cc1 (configuration not stated)	20µM*	2.7%	33.5%	?	6.6%	-9.6%	-1.1%	15.6%
COc1nccnc1NS(=O)(=O)c1ccc(NC(=S)NC(=O)/C=C/c2ccccc2)cc1	?	-3.8%	0.3%	?	0.7%	11.3%	4.6%	10.6%
C/C(=N/OC(=O)c1cccc(C(F)(F)F)c1)c1cnccn1	.	.	1.8%	-13.8%[46.1 µM]	1.4%	-2.9%	2.6%	-0.5%
Cc1ccc2oc(=O)c3cc(C(=O)N4CCN(C)CC4)sc3c2c1	.	.	7.6%	.	.	-20.2%	-1.2%	0.5%
Cc1nc2ncnn2c(N2CCC(C(=O)NC3CCCC3)CC2)c1Cc1ccccc1	-6.5%	2.2%	3.5%	-21.2%	?	-28.7%	3.0%	-0.5%
COc1ccc(OCC(=O)OCC(=O)NC2CCCC2)cc1	.	.	-14.5%	8.5%	2.3%	-4.8%	-14.9%	.
COc1cccc(CNC(=O)c2ccc3c(Cl)c4c(nc3c2)CCCC4)c1	-2.0%	-2.9%	.	-21.5%[46.1 µM]	-1.5%[46.1 µM]	12.9%	.	.
O=C(Cc1c(F)cccc1Cl)NCc1cccnc1	.	.	-8.3%	?	-15.2%	-6.8%	-1.3%	2.2%
O=[N+]([O-])c1ccc(OCC(O)CN(CCO)CCO)cc1 (configuration not stated)	-0.7%	-4.7%	-2.3%	-0.9%	10.4%	-21.3%	17.4%	-2.4%
COc1cc(C(=O)Nc2ccc(S(=O)(=O)N(C)c3ccccc3)cc2)cc(OC)c1OC	?	-5.1%	-22.1%	?	?	-3.2%	13.0%	?
O=c1sc(/C=N/Nc2ccccc2)c(Cl)n1Cc1ccccc1	?	-7.7%	-7.2%	?	-5.3%	62.5%[activator]	3.1%	5.4%
Cc1ccc2cccc(OCCCOc3ccccc3CO)c2n1	.	.	9.5%	.	.	-13.9%	-0.6%	-14.5%
Cn1nc(C(=O)N2CCOCC2)c2ccccc2c1=O	-13.4%	3.7%	-6.6%	12.6%	6.7%	-14.8%	5.9%	-0.5%
CCOC(=O)CSc1nnc(Cn2nnc(-c3ccccc3)n2)n1CC	-4.9%	4.9%	5.7%	?	12.5%	0.0%	3.1%	-6.8%
Cc1cccc(N2CCN(C(C)C(=O)N3CCc4ccccc43)CC2)c1C (configuration not stated)	.	.	-4.5%	?	2.4%[46.1 µM]	-17.6%	3.3%	6.5%
Cc1cc(C)n(C(=O)/C(C#N)=C/N(C)C)n1	.	.	11.7%	?	0.1%[46.1 µM]	-3.0%	0.2%	.
COc1ccc(C(C)(C)C)cc1NC(=O)c1ccoc1C	1.4%	2.9%	0.0%	-9.7%	-15.7%	?	-19.5%	-90.4%
CCOC(=O)c1cnc(-c2ccccc2)nc1C(F)(F)F	.	.	-7.9%	-1.7%[46.1 µM]	-13.5%	49.8%[activator]	-1.5%	.
Cc1ccc(-n2ncc3c2ncn2nc(-c4ccco4)nc32)c(C)c1	-21.7%	1.0%	-10.0%	?	?	31.7%[activator]	2.8%	-9.4%
COC(=O)Cc1nc(Nc2ccccc2)sc1C	.	.	-2.8%	0.0%[14.2 µM]	3.6%	4.4%	-6.2%	-47.0%
Cn1c(=O)c2c(ncn2CCC(=O)N/N=C/c2ccncc2)n(C)c1=O	.	.	1.9%	?	-0.1%	-9.6%	-0.5%	2.5%
COc1ccc(OC)c(Nc2nc3nonc3nc2N2CCCCC2)c1	7.4%	-2.7%	2.5%	?	5.8%	-20.5%	-3.4%	4.6%
COCCN(C(=O)C1CCC1)c1nnc(-c2cccnc2)s1	-12.4%	-0.7%	6.7%	-1.8%[46.1 µM]	1.1%	-5.3%	.	-14.2%
N#C/C(=C\c1ccc([N+](=O)[O-])cc1)C(=O)NCCCn1ccnc1	.	.	-2.5%	2.6%[46.1 µM]	-3.3%	?	-1.0%	-10.5%
COc1cc(OC)c(C(=O)OCC(=O)Nc2ccc(N3CCOCC3)cc2)cc1OC	.	.	-21.2%	?	0.4%	-17.7%	11.5%	.
O=c1oc(-c2ccccc2[N+](=O)[O-])nc2ccccc12	-5.9%	3.3%	-12.5%	-17.9%	-9.3%	-23.8%	0.1%	5.8%
O=C(NCc1cccs1)c1ccc(CS(=O)Cc2cccc(Cl)c2)o1 (configuration not stated)	.	.	6.4%	-1.7%[46.1 µM]	-19.8%[46.1 µM]	-8.2%	1.1%	9.3%
Cc1nonc1C(=O)N/N=C/c1ccncc1	.	.	-6.2%	.	.	0.0%	-0.9%	-0.2%
CCN(C(=O)Cn1nc(C(=O)O)c2ccccc2c1=O)C1CCCCC1	.	.	-2.2%	-13.3%[46.1 µM]	16.2%	-24.2%	1.1%	.
CCn1c(C)c(C)c2cc(C(=O)NCC(C)c3ccccc3)ccc21 (configuration not stated)	-29.4%	-8.4%	.	.	?	-14.3%	.	.
CCOc1ccc(OCCCC(=O)N2CCN(S(=O)(=O)c3ccc(Cl)cc3)CC2)cc1	.	.	-24.2%	-0.1%	-9.6%	-3.6%	-1.4%	.
CCN(C(=O)CSc1nc2ccccc2n1CC(=O)Nc1ccccc1C)c1ccccc1	-1.8%	-2.8%	.	.	-3.4%[46.1 µM]	6.8%	.	.

The list goes on:
SMILES	Cruzain inh noDet	Cruzain inh Det	RE007 growth inh	MARV entry inh	Lassa entry inh	2A StopGo	SARS PLP yeast	NS1 function inh
Nc1nnc(-c2ccc([N+](=O)[O-])o2)s1	.	.	13.7%	?	?	-7.8%	.	.
CC(C)c1cc(=O)n2[nH]c(SCc3ccccc3Cl)nc2n1	.	.	0.0%	17.5%[46.1 µM]	15.0%[46.1 µM]	-0.6%	-0.3%	1.5%
CCOC(=O)N1CCN(c2nc(=S)n(-c3ccccc3)c(C)c2C(C)=O)CC1	-5.5%	-3.6%	2.0%	1.3%	5.7%	-9.9%	-1.3%	-9.4%
COc1ccc(N(CC(=O)NCc2cccs2)S(=O)(=O)c2cccc(C)c2)cc1	.	.	4.2%	-14.0%	-0.9%	17.8%	1.0%	.
Fc1ccc(-c2ccnc(=S)[nH]2)cc1	-5.2%	-0.6%	-5.6%	21.4%	18.1%	.	-15.3%	13.2%
O=C(NC1CCOC1)c1cc(COc2cccc(C(F)(F)F)c2)on1 (configuration not stated)	.	.	-5.9%	.	.	17.1%	-3.2%	-18.7%
Cc1c(Cl)cccc1NC(=S)N(Cc1ccccc1)Cc1cccnc1	.	.	-16.6%	?	-21.8%[46.1 µM]	-6.3%	-16.1%	-5.8%
CCc1cccc(CC)c1NC(=O)CSc1nnc(CCC(=O)O)c(=O)[nH]1	.	.	-1.1%	16.1%[46.1 µM]	9.7%	0.0%	0.3%	.
